Screening data: PubChem, National Center for Advancing Translational Sciences (NCATS)
VDR inhibitor – Inhibitors of the vitamin D receptor (VDR): qHTS; hit rate 0.93% among 400,000; VDR-SRC2-3 peptide fluorescence polarization, 2 h; Potency, µM, inactives show max response, negative = inhibition, most hits filed as inhibitors; Vitamin D3 receptor (Homo sapiens), P11473; active means well fitted inhibition curve with a large enough effect; inconclusive means small, poorly fitted or top-dose-only effect, or another doubt; inactive means no such curve, though single readings can be large or run the other way; further: series mostly up to about 120 µM
Target sequence (P11473 whole entry, looked up): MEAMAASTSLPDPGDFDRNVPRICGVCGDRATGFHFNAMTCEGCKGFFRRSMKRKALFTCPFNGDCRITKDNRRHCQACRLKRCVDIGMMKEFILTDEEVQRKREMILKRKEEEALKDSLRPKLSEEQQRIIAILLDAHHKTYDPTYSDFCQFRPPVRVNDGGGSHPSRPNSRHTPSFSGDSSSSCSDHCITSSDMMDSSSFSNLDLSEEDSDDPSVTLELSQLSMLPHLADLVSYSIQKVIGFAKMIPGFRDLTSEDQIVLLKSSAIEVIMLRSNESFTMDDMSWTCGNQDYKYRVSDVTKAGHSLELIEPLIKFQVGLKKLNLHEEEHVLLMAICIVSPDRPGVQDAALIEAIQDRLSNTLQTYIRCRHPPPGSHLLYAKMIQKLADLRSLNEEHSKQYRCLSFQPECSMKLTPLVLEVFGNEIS
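Measured by FP: displacement of SRC2-3 coactivator peptide from VDR by library compounds, following a two-hour ambient incubation.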
Active calls of the source: *; ? = inconclusive; [ ] = remark or other dose. On the % scale 0 is the no-effect control and ±100 the full control effect; potency means the concentration at half of the fitted maximal effect.

SMILES	VDR inhibitor
CC12CCC(C(=O)Nc3ncc([N+](=O)[O-])s3)(OC1=O)C2(C)C (centres undefined)	17.9%
COc1cccc(NS(=O)(=O)c2cc3c(cc2C)NC(=O)CO3)c1	9.2%
COc1ccc(-c2noc(CCC(=O)Nc3ccc(C(F)(F)F)cc3)n2)cc1	-1.6%
COc1ccc(CCNC(=O)Cn2ccc3cc(S(=O)(=O)N4CCCCC4)ccc32)cc1OC	3.4%
CC1=NN(c2ccccc2)C(=O)C1N=Nc1ccc(N)cc1 (centres undefined)	-19.1%
Cc1ccc(C(C)C)c(OCc2nn(CC(=O)c3ccc(Cl)cc3)c3[n+]2CCCCC3)c1	12.0%
CN(Cc1ccc(F)cc1)C(=O)COc1ccccc1-c1ccccc1	8.2%
O=C(NCCCN1CCOCC1)c1sc2cc(F)ccc2c1Cl	0.7%
COc1ccc(CCNC(=O)CN(Cc2ccc(Cl)cc2)S(C)(=O)=O)cc1OC	-15.5%
COc1cccc(C(=O)Nc2cc(C)ccc2NC(=O)COc2ccccc2)c1	-16.3%
CCCN(CC(=O)Nc1ccc(Cl)cc1Cl)C(=O)CC(NC(C)=O)c1ccccc1 (centres undefined)	-10.6%
CC(=O)Nc1ccc(NC(=O)CCCn2cnc3ccccc3c2=O)cc1	0.6%
CCCCOc1ccc(C(=O)N(Cc2nc(-c3ccc(Cl)cc3)no2)C(C)C)cc1	-8.3%
CN1C(=O)c2cccc3c(N(C)C)ccc(c23)C1=O	-9.7%
COc1ccc(CNc2nc(-c3cccnc3)nn2C(=O)c2ccco2)cc1	30.7%[activator]
Cc1ccc(/C=C(/C#N)c2nc(CCN3C(=O)c4ccccc4C3=O)cs2)cc1	7.8%
CC(=O)N1CCCc2cc(S(=O)(=O)NCc3ccc(C)cc3)ccc21	-7.5%
CCOC(=O)c1cn2nc(Oc3ccc(C#N)cc3)ccc2n1	5.4%
OCc1ccc(OCCCOc2cccc3cccnc23)cc1	-18.5%
COc1cc(/C=N/N2C(=O)C3C4C=CC(CC4)C3C2=O)ccc1O (centres undefined)	25.3%
Cc1ccc2c(c1)nnc1nnc(SCC(=O)O)n12	-12.4%
COc1cc2c(cc1NC(=O)COc1ccc(Br)cc1)oc1ccccc12	-19.9%
O=C(N/N=C/C1CCCCC1)c1ccccn1	1.9%
CCOc1ccc(NC(=O)Cn2cnc3sc(C)c(S(=O)(=O)N4CCN(c5ccccc5OC)CC4)c3c2=O)cc1	-22.1%

An excerpt taken from the entries so far, as a working copy:
SMILES	VDR inhibitor
Cc1ccc2c(c1)nnc1nnc(SCC(=O)O)n12	-12.4%
COc1cc2c(cc1NC(=O)COc1ccc(Br)cc1)oc1ccccc12	-19.9%
O=C(N/N=C/C1CCCCC1)c1ccccn1	1.9%
CCOc1ccc(NC(=O)Cn2cnc3sc(C)c(S(=O)(=O)N4CCN(c5ccccc5OC)CC4)c3c2=O)cc1	-22.1%

(further entries)
SMILES	VDR inhibitor
O=C(N/C(=C\c1ccc(Cl)cc1)C(=O)N1CCOCC1)c1ccc([N+](=O)[O-])cc1	-10.6%
C=CCOc1cccc(C2C(C(=O)c3cccs3)=C(O)C(=O)N2Cc2cccnc2)c1 (centres undefined)	-15.9%
Cc1nc2nc(SCC(=O)NCCc3ccccc3)nn2c(C)c1Cc1c(F)cccc1Cl	2.6%
O=C(Cc1ccccc1F)Nc1cccc(S(=O)(=O)N2CCOCC2)c1	-7.1%
COc1ccc(CCNC(=O)c2nn(-c3ccc(C)cc3)c(=O)c3c2c2ccccc2n3C)cc1OC	-10.7%
CC(C)NC(=S)NC1(C)CCS(=O)(=O)C1 (centres undefined)	-15.3%
COc1ccc(C(=O)Nc2cc(C(C)C)c(O)c(S(=O)(=O)c3ccc(Cl)cc3)c2C)cc1	13.2%
CC(NC(=O)Cc1ccc(S(=O)(=O)N2CCOCC2)s1)c1ccc(Br)cc1 (centres undefined)	-13.5%
CCOC(=O)c1cc(NC(=O)Nc2ccccn2)c(C)nc1C	33.1%[activator]
COC(=O)c1cc(-c2ccc(C)o2)nc2ccccc12	79.4µM*
Cc1cc(C)c2cc(C(=O)N3CCC(N4CCCCC4)CC3)[nH]c2c1	4.4%
COc1cc(C=O)ccc1OCCSc1ccc(Cl)cc1	1.7%

Gathered by group, the compounds so far containing four or more nitrogen atoms (9)
SMILES	VDR inhibitor
CC1=NN(c2ccccc2)C(=O)C1N=Nc1ccc(N)cc1 (centres undefined)	-19.1%
CC(=O)Nc1ccc(NC(=O)CCCn2cnc3ccccc3c2=O)cc1	0.6%
COc1ccc(CNc2nc(-c3cccnc3)nn2C(=O)c2ccco2)cc1	30.7%[activator]
CCOC(=O)c1cn2nc(Oc3ccc(C#N)cc3)ccc2n1	5.4%
Cc1ccc2c(c1)nnc1nnc(SCC(=O)O)n12	-12.4%
CCOc1ccc(NC(=O)Cn2cnc3sc(C)c(S(=O)(=O)N4CCN(c5ccccc5OC)CC4)c3c2=O)cc1	-22.1%
Cc1nc2nc(SCC(=O)NCCc3ccccc3)nn2c(C)c1Cc1c(F)cccc1Cl	2.6%
COc1ccc(CCNC(=O)c2nn(-c3ccc(C)cc3)c(=O)c3c2c2ccccc2n3C)cc1OC	-10.7%
CCOC(=O)c1cc(NC(=O)Nc2ccccn2)c(C)nc1C	33.1%[activator]

The list goes on:
SMILES	VDR inhibitor
COc1ccc(C(=O)N2CCC(c3ccncc3)CC2)cc1OC	12.6%
O=C1CC(C(=O)N2CCN(c3ccccc3O)CC2)CN1Cc1ccccc1 (centres undefined)	-17.1%
CCCn1cc(S(=O)(=O)c2ccc(C)c(C)c2)c(=O)c2cc(F)c(N3CCCCC3)cc21	15.0%
COc1ccc(CCNC(=O)c2cc3c(-c4ccccc4F)nn(C)c3s2)c(OC)c1	-17.0%
CCOC(=O)c1c(NC(C)=O)sc2c1CCC(C=NCCCN(CC)CC)=C2Sc1ccccc1	?
Cc1cc([N+](=O)[O-])ccc1N	2.6%
O=C(Nc1ccccc1)O/N=C/c1ccccc1Cl	-7.0%
Cc1c(S(=O)(=O)N2CCN(c3ccc(F)cc3)CC2)c(=O)n(C)c(=O)n1C	-6.6%
Cn1c(=O)c2c(nc(NCc3cccnc3)n2Cc2ccc(Cl)cc2)n(C)c1=O	-7.7%
CCN(c1ccccc1)c1ncnc2c1cnn2-c1ccc(OC)cc1	8.4%
C[C@@H]1C(=O)O[C@@H]1[C@@H](C)CO[Si](c1ccccc1)(c1ccccc1)C(C)(C)C	6.6%
Cc1nn(Cc2noc(C(=O)NC(C)c3ccccc3)n2)c(C)c1Br (centres undefined)	5.7%
COCCCNC(=O)CCc1nc(-c2ccccc2Cl)no1	-19.2%
CN(C(=O)c1ccc(NC(=O)Cc2cccc(NC(=O)C3CCN(C(=O)C4CCC4)CC3)c2)cc1)C1CCCC1	-9.4%
Cc1cc(O)c2c(c1)OC1(C)CCC3C(C)(C)CCCC34COC2C14 (centres undefined)	-25.7%
COC(=O)c1c(NC(NC(=O)C(C)C)C(Cl)(Cl)Cl)sc2c1CCCC2 (centres undefined)	-7.9%
C=CCn1c(-c2sc3nc(C)cc(C)c3c2N)n[nH]c1=S	36.0%[activator]
CN1CCN(c2ncc3ncc(=O)n(CCC#N)c3n2)CC1	-9.5%
COc1ccccc1-n1c(C)nc(=O)c(-c2ccccc2)c1C	-10.4%
Cn1c(N)c(C(=O)CSc2nn(-c3ccccc3)c(=S)s2)c(=O)n(C)c1=O	5.5%
O=C(CN1CCCN(Cc2ccc(F)cc2)S1(=O)=O)NC1CCCC1	-3.7%
CC1CC(C)CN(CCCNC(=O)c2ccc3nc(N4CCCCC4)sc3c2)C1 (centres undefined)	-2.3%
COc1ccc(Br)c(C(=O)N(C)CC(=O)Nc2ccc(N3CCOCC3)cc2)c1	11.4%
COc1ccc(S(=O)(=O)N2CCCCCC2)cc1C(=O)N1CCN(c2ccccc2O)CC1	?
CC(C)c1ccccc1NC(=S)NN(Cc1ccccc1)c1ccccc1	-6.5%
CC(C)C(=O)Nc1nc(-c2ccc([N+](=O)[O-])cc2)cs1	-21.6%
O=C(O)c1ccc(-n2c(-c3cc(-c4ccco4)[nH]n3)n[nH]c2=S)cc1	-4.8%
O=C(NC1CCN(CC(=O)N(c2ccccc2)c2ccccc2)CC1)c1ccc([N+](=O)[O-])cc1	-3.7%
OCC1(CC2CCCCO2)CCN(C/C=C/c2ccccc2)CC1 (centres undefined)	-15.2%
Cc1cccc(OCC(=O)Nc2ccc(C(=O)NCC(C)C)cc2)c1	1.4%
CC1(C)N(O)CC(c2cccs2)=[N+]1[O-]	5.3%
CN(Cc1ccccc1)c1oc(-c2ccco2)nc1C#N	3.7%
O=[N+]([O-])c1ccccc1S(=O)(=O)N1CCN(c2ccccn2)CC1	-5.8%
Cc1ccc(NC(=O)c2ccccc2[N+](=O)[O-])nc1	-0.1%
Cc1ccc(-c2cc(C)nc3ncnn23)cc1	-12.8%
COc1ccc(CNc2cc(-c3cccnc3)ncn2)c(OC)c1	31.6µM*
COC(=O)c1cccc(NC(=O)CCN2C(=O)C3CC=CCC3C2=O)c1 (centres undefined)	19.8%
Cn1c(N)c(C(=O)CSc2nnc(-c3ccccc3F)n2C2CC2)c(=O)n(C)c1=O	-4.6%
O=C(CNC(=O)c1ccccc1)OCc1cc(=O)n2cc(Br)ccc2n1	5.7%
COc1ccc(NC(=O)N2CCN(c3nc(-c4cccc(OC)c4)cs3)CC2)cc1	0.0%
CC(NC(=O)Nc1ccc(Cl)cc1)C(c1cccs1)N1CCOCC1 (centres undefined)	-11.2%
Cc1[nH]c2ccccc2c1C1=CC(=O)C=CC1=O	28.2µM*
COc1ccc(/C=C/C(=O)c2cc(F)ccc2OC(=O)c2ccc(OC)c(OC)c2)cc1OC	-22.5%
Cc1cccc(N2CCN(C(=O)CCn3c(=O)c4cccn4c4cccnc43)CC2)c1C	-6.0%
Cc1ccc(Cn2nc3c(cc2=O)CCc2ccccc2-3)cc1	-3.6%
Cc1cc(C(=O)NC2CC(C)(C)Cc3c2cnn3-c2cccc(F)c2)n(C)n1 (centres undefined)	-19.6%
Cc1ccc(Cl)c2c(N=Nc3ccccc3)c(O)[nH]c12	-14.4%
COP(=O)(OC)C(Nc1ccc([N+](=O)[O-])cc1)c1ccccc1 (centres undefined)	-3.8%
CC(=O)c1cnc2ncnn2c1C	0.4%
Cc1ccc(NC(=O)CSc2nnc(CNC(=O)C34CC5CC(CC(C5)C3)C4)n2-c2ccc(F)cc2)cc1	2.0%
COc1ccc(C(=O)O)cc1NS(=O)(=O)c1cccc2nsnc12	11.0%
c1cncc(Cc2cc3ccccc3[nH]2)c1	1.6%
Cc1nc2c(c(=O)n1CCC(C)C)c1nc3ccccc3nc1n2Cc1ccc2c(c1)OCO2	20.0%
COc1ccc(/C=C(/NC(=O)c2ccc([N+](=O)[O-])cc2)C(=O)NCCCN(C)C)cc1	-19.3%
CCOC(=O)c1cc(S(=O)(=O)Nc2ccc(OC)c(Cl)c2)[nH]n1	23.9%
O=C(COc1ccccc1Br)Nc1ccccc1C(F)(F)F	7.2%
CCN(CC)CCCNC(=O)C1CCN(c2ncnc3c2sc2cccc(F)c23)CC1	-10.3%
CCOc1c(Br)cc(/C=C2/SC(=O)N(CC(=O)N3CCCC3)C2=O)cc1OC	1.4%
O=C(CCSc1ccccc1)NCc1cccnc1	-14.1%
COc1cccc(C=NNc2nc3ccccc3s2)c1OC	25.1%

The list continues.
SMILES	VDR inhibitor
C/C=C/Cn1c(SCCCc2ccccc2)nc2c1c(=O)[nH]c(=O)n2C	11.0%
O=c1c2sc3ccccc3c2n(Cc2ccc(Cl)cc2)c(=O)n1Cc1ccco1	-10.3%
Cn1nnnc1Sc1ncnc2scc(Br)c12	-29.0%
COC(=O)CSc1ncnc2c(C)csc12	-2.9%
Cc1noc(C)c1C(=O)N1CCC[C@@]2(CCN(C(=O)Nc3cccc(C#N)c3)C2)C1	9.5%
COc1c(N)c2c(c([N+](=O)[O-])c1OC)C(=O)OC2	10.2%
CCCCCCCCCCCCN1C(=O)CSC1c1cccnc1 (centres undefined)	?
COc1ccc(CCn2c(=N)c(C(=O)NCc3ccco3)cc3c(=O)n4cccc(C)c4nc32)cc1	-8.4%
COc1ccc2oc(C(=O)Nc3nc(C)cs3)c(C)c2c1	16.7%
C[C@H](NS(=O)(=O)c1ccc(Cl)cc1)C(=O)OCC(=O)NCCc1ccc(S(N)(=O)=O)cc1	21.5%
Cc1ccc(NC(=O)CSCC(=O)NNC(=O)c2ccoc2C)cc1	-19.6%
O=C(CCC(=O)c1ccc(Br)cc1)Nc1ccc(F)cc1	0.8%
Cc1cc(/C=C2/NC(=O)N(Cc3ccccc3F)C2=O)c(C)n1C	-19.9%
Cn1c(Cn2c(=O)sc3ccccc32)nnc1SCC(=O)N1CCN(c2ccccc2)CC1	?
Cc1ccc(C(=O)Nc2ccc(CN3CCCCC3)cc2)c(C)c1	12.7%
NC(=O)CC(NC(=O)Cc1ccc(Cl)cc1)c1ccc(NCCOc2ccccc2)c([N+](=O)[O-])c1 (centres undefined)	2.9%
COC(=O)CC1C(=O)NCCN1C(=O)c1ccc([N+](=O)[O-])cc1 (centres undefined)	-12.6%
Cc1c2ccncc2cc2c1[nH]c1ccccc12	20.7%
CCCN1CCN(CCCNC(=O)c2ccc3c(c2)sc2nc(-c4ccc(C)cc4)cn23)CC1	19.5%
COc1ccccc1NC(=O)Nc1nc(CC(=O)Nc2ccc(N(C)C)cc2)cs1	-5.4%
CCOc1ccc(NCc2nnc(SCc3ccc(Cl)cc3)n2-c2ccccc2)cc1	?
COc1ccc(CCNC(=O)CN(Cc2ccc(Cl)cc2)S(C)(=O)=O)cc1	-9.6%
COc1ccc(CCNc2oc(-c3ccccc3OC)nc2C#N)cc1OC	-11.8%
Cc1cc(C(=O)NCc2cc(C)n(C)n2)sc1-c1ccccc1	8.7%
Fc1cc(Cl)ccc1NC1=NCCCCC1	4.3%
CCc1cc2cc(C(=O)Nc3ccccc3F)sc2s1	-1.3%
Cc1[nH]n(C2=NCCS2)c(=O)c1N=Nc1ccccc1	-16.8%
O=C(COc1cc2oc(=O)c3c(c2cc1Cl)CCC3)NCCCn1ccnc1	-11.6%

The list is partial; the hit share may differ from the screen's.
